# Source: PubChem (several laboratories)
# YopH PTP inh = inhibitors of Yersinia enterocolitica YopH tyrosine phosphatase. fluorescence Ex485/Em525. hit rate 0.16% among 140,000. inhibition, %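 (about 10 µM by stock and volumes)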. AID 898;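 active = inhibition of 50% or more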;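 note: controls were vehicle for no effect and minimum signal wells for full effect; inactives centre near -20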
# Mtb H37Rv = M. tuberculosis H37Rv growth inhibitors, H37Rv strain (AID 1626) | M. tuberculosis H37Rv growth inhibition; higher % means a stronger effect | inhibition, % at 10 µM, or IC50 in µM where a hit was titrated | hit rate 0.95% among 220,000;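 active = confirmed in a dose series; inconclusive = inhibition above 80% but not taken into the dose series; inactive = below 80% or under 30% at every dose of the series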;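 note: bacteria incubated seven days before Alamar blue readout; 0% = bacteria only wells and 100% = bacteria with antibiotic wells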
# Mtb bLac sens = beta-lactam sensitization of Mtb H37Rv. hit rate 0.27% among 330,000. inhibition, % at 25 µM. M. tuberculosis H37Rv growth with meropenem, percent inhibition; hits of this screen are not shown here. AID 434955;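 active = about 74% or more and at least 40 points above the plate without the antibiotic, then above 30% in a dose series; inconclusive = first-round hits that could not be retested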;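 note: growth measured after seven days incubation then overnight dye step; 0% = bacteria only wells and 100% = bacteria with antibiotic; twin plates without the antibiotic show which effects depend on it; some results filed as inactive read as strong as hits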
# RecA splice inh = Mtb RecA intein splicing inhibition | P9WHJ3 | cell-free RecA intein splicing, fluorescence | inhibition, %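 (about 9 µM by stock and volumes)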 | hit rate 0.75% among 290,000; in the data active = inhibition above about 30%; inconclusive = no clear call, values can overlap the other calls;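 note: 0% = vehicle wells and 100% = reference inhibitor control wells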
# Target sequence (P9WHJ3 whole entry, looked up, canonical isoform): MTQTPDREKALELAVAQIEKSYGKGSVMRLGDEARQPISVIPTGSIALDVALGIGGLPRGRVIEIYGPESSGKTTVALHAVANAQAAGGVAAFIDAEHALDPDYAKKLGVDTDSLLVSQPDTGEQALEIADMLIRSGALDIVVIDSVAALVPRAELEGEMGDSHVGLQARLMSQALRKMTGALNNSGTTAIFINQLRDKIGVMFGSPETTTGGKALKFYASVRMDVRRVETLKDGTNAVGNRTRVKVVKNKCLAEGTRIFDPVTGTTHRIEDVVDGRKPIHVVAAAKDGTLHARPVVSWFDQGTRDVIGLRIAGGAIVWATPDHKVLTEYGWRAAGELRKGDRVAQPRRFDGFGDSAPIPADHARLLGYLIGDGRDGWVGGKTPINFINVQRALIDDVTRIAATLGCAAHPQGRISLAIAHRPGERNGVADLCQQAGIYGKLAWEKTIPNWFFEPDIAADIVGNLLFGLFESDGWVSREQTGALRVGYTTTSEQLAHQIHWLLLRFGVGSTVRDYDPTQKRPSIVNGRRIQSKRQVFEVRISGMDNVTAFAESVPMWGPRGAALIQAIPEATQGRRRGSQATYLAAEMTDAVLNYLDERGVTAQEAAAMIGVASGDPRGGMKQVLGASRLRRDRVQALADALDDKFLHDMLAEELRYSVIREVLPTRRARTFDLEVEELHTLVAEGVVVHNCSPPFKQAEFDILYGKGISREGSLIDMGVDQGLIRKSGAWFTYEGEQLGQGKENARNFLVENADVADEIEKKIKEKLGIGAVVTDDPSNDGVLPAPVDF
# Arbovirus anti = arbovirus infection inhibition | arbovirus infection cell-based antiviral screen | AID 1251 | inhibition, % at 10 µM | hit rate 0.37% among 200,000;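 active = inhibition from about 30%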;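 note: bluetongue infection of BSR cells; cell survival read as ATP light after 72 h; 0% = infected wells without compound and 100% = uninfected wells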
# Arbovirus anti repeat = further read-out of Arbovirus anti, marked with its call; inhibition, %; measured here: 10K subset replicate screen; many hits read low in the repeat;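 first of two repeat runs on a subset; 0% = infected and 100% = uninfected wells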
# Active calls of the source: *; i = inactive; ? = inconclusive; . = not tested or not shown.
SMILES,YopH PTP inh,Mtb H37Rv,Mtb bLac sens,RecA splice inh,Arbovirus anti,others
O=C(NCc1ccco1)c1noc2c1CCCC2,-30.1,8.2%,-8.8,-2.8,-6.4,
CC(=O)N1CCc2cc(S(=O)(=O)CCC(=O)NCc3cccs3)ccc21,-41.9,.,-5.8,-1.2,-1.7,
Cc1c(C)c2cc(Cl)c(OC(C)C(=O)NCCN3CCOCC3)cc2oc1=O (stereo unspecified),.,.,-1.0,-0.7,.,
Cc1cccc(NC(=O)CCNC(=O)c2ccccc2)c1,.,.,-3.5,2.3,.,
COc1ccc(C(=O)N(Cc2sccc2C)C2CCS(=O)(=O)C2)cc1 (stereo unspecified),.,.,3.3,1.1,.,
Cc1ccc(C(=O)Oc2ccc(-c3nccc(-c4ccccn4)n3)cc2)cc1,-26.2,5.7%,53.1,-2.6,-3.9,
CC(C)(C)NC(=O)c1nn(Cc2ccccc2)c(=O)c2ccccc12,.,0.0%,4.3,-1.4,-1.0,
CCS(=O)(=O)N1CCN(c2ccc([N+](=O)[O-])c(NCc3ccccc3)c2)CC1,-47.8,-3.8%,62.2,4.6,-11.5,
COc1cccc(NC(=O)CCN2C(=O)c3cccc([N+](=O)[O-])c3C2=O)c1,.,.,-0.6,-3.8,.,
O=S(=O)(NCc1ccco1)c1ccc(Cl)nc1,-28.4,11.9%,8.4,-1.9,6.0,
Cc1cc2cc(CCNC(=O)c3cccc([N+](=O)[O-])c3)c(=O)[nH]c2cc1C,8.4,-2.7%,64.1,0.8,0.4,
N#CCCn1cc(/C=N/N=C2\NC(=O)C(CC(=O)O)S2)c(-c2ccc(F)cc2)n1 (stereo unspecified),.,-6.2%,0.4,-0.3,.,
CN(C)C=NC(=O)c1cc(C(=O)c2ccc(Cl)cc2Cl)c[nH]1,.,-6.8%,-4.5,-2.4,12.5,
O=C(O)c1ccc(CSc2ncnc3c2cnn3Cc2ccccc2)cc1,.,4.4%,0.2,-0.3,.,
O=C(CNS(=O)(=O)c1ccc(F)cc1)N1CCCC1,.,.,-1.3,0.9,.,
NC(=O)COc1c(-c2ccco2)oc2ccccc2c1=O,.,-1.1%,-1.4,-1.0,5.4,
O=C(c1cnn(-c2ccccc2)c1)c1cc(F)ccc1O,.,.,-2.2,4.5,.,
COc1ccccc1NC(=O)N(CCN1CCOCC1)Cc1cc2cc(C)cc(C)c2[nH]c1=O,.,-1.6%,-3.2,-1.3,-0.3,
CCOc1ccc(-c2n[nH]c(C)c2-c2ccccn2)c(O)c1,.,-0.3%,-4.4,-2.2,4.9,
CN(CC(=O)O/N=C(\N)c1cccc([N+](=O)[O-])c1)S(=O)(=O)c1ccccc1,-26.4,6.0%,19.8,-2.0,-3.6,
COc1ccc(C(=O)ON=C2C=C(C)C(=O)C(C)=C2)cc1,.,-2.8%,71.5,-2.8,0.1,
CCc1cc(OCCCSc2nc(C)cc(=O)[nH]2)ccc1Cl,0.0,19.6%,4.5,.,17.1,
CCCCOCP(=O)(CCCC)COCCCC,6.6,5.8%,-6.6,12.3,1.2,
O=C(CN1C(=O)c2ccccc2S1(=O)=O)NCCSC1CCCCC1,-14.3,-2.5%,-1.1,2.1,-6.4,
COc1ccc(NC(=O)CC(c2ccc(F)cc2)c2ccc(OC(C)C)cc2)cc1 (stereo unspecified),-15.0,2.1%,4.2,6.1,-4.5,
# Continued:
SMILES,YopH PTP inh,Mtb H37Rv,Mtb bLac sens,RecA splice inh,Arbovirus anti,others
O=C(CCCOc1ccc(Cl)cc1)Nc1ccc(N2CCOCC2)cc1,.,1.1%,-0.1,5.5,-11.0,
N#C/C(=C/c1cccc(C(F)(F)F)c1)c1nc(CCN2C(=O)c3ccccc3C2=O)cs1,-26.4,-11.5%,-4.6,0.0,6.2,
CN(C)/C=C(/C(=O)c1ccc(Cl)c(Cl)c1)c1nnnn1-c1ccccc1,.,-6.2%,-5.2,0.5,.,
N=C1C(c2ccccc2)=C(O)CN1c1ccc2c(c1)OCO2,-33.5,-0.7%,0.9,-0.6,-2.8,
O=C(OCc1ccco1)c1cccnc1,.,-0.8%,8.2,.,3.7,
CCCc1cc(=O)c2c(O)ccc(OC)c2o1,.,0.1%,7.8,-0.3,.,
COc1ccc(-c2noc(CN(C)C(=O)c3ccc4c(c3)OCO4)n2)cc1,.,.,6.7,0.6,.,
O=C(CN1CCN(c2ccccc2O)CC1)Nc1ccc2c(c1)CCC2,-23.9,20.5%,5.3,2.1,-1.2,
O=C(CSc1c[nH]c2ccccc12)NCC1CCCO1 (stereo unspecified),-31.6,12.6%,-0.9,4.0,2.8,
CCc1ccc(NC(=O)c2ccc(F)c(S(=O)(=O)N(CC)c3ccccc3)c2)cc1,-18.4,0.3%,-7.3,0.1,1.6,
CN(CC(=O)Nc1ccccc1C(F)(F)F)C(=O)C1=COCCO1,.,.,1.5,-1.7,.,
Cc1nc(COC(=O)c2ccc(CO)cc2)cs1,-41.7,-7.2%,-7.7,.,1.1,
O=c1[nH]c2c(cnn2-c2ccc(Cl)cc2)c(=O)n1-c1cccc(Cl)c1,.,-5.9%,14.5,0.1,.,
CCOC(=O)c1cnn(-c2nc(OC)cc(OC)n2)c1C(F)(F)F,-20.5,-1.1%,-10.4,-0.3,-8.8,
CC(NC(=O)CSc1ncccc1C(=O)O)C1CC2CCC1C2 (stereo unspecified),.,-2.9%,-2.3,1.9,.,
Cc1cc(C)cc(OCc2nnc(SCC(=O)c3ccccc3)o2)c1,-9.5,5.7%,-2.6,-2.4,-1.5,
CC(C)(C(=O)Nc1nccs1)c1ccccc1,.,-8.6%,8.8,2.9,-1.7,
Cc1nn(C)c(C)c1CCC(=O)N1CCCC(C(=O)c2cccc(OC(C)C)c2)C1 (stereo unspecified),.,.,0.9,-0.1,.,
Cc1cc(C)nc(SCCCNCc2ccc(Br)cc2)n1,.,.,-5.1,2.3,.,
CS(=O)(=O)Nc1cccc(C2=NN(C(=O)c3ccco3)C(c3ccco3)C2)c1 (stereo unspecified),.,.,7.4,-1.7,.,
COCc1cc(=O)[nH]c(/N=C(\N)Nc2ccc(Cl)c(Cl)c2)n1,.,-6.8%,-5.4,0.7,.,
CC1=C(/C=C/c2ccccc2)CCN(C)C1,-6.2,4.9%,-8.9,0.0,3.0,
Cc1cc(N/C=C(\C#N)S(=O)(=O)c2ccccc2Cl)nc(C)n1,.,-9.1%,-2.1,3.9,.,
COc1ccc(S(=O)(=O)N2CCN(Cc3cc(OC)c(OC)c(OC)c3)CC2)cc1,.,.,5.3,-0.2,.,
N#Cc1cnc(Nc2ccc(F)cc2)nc1N,.,-3.3%,-4.4,-1.4,.,
# Other compounds:
SMILES,YopH PTP inh,Mtb H37Rv,Mtb bLac sens,RecA splice inh,Arbovirus anti,others
COC(=O)C(C)Oc1ccc(Cl)c(CN2OCC(C)(C)C2=O)c1 (stereo unspecified),.,.,-3.9,-0.1,.,
COc1cccc2[nH]c3c(N4CCCC(C)C4)ncnc3c12 (stereo unspecified),-48.7,6.8%,-6.3,-2.1,-0.9,
O=C(O)/C=C\C(=O)Nc1ccccc1F,-28.5,-0.6%,1.0,2.0,0.9,
Cc1csc(SCCN2C(=O)c3ccccc3C2=O)n1,-30.0,-8.9%,5.7,-1.3,1.2,
Cc1c2c(nc3nc4ccccc4n13)CCCC2=O,-25.5,-9.4%,.,-3.6,1.8,
CN(C)C(=O)c1ccc(NC(=O)CSc2nc3ccccc3[nH]2)cc1,.,6.6%,-2.2,-2.2,6.1,
Cn1c(SCc2ccc(C#N)cc2)nnc1-c1ccncc1,.,.,3.2,0.4,.,
CCOc1ccc2c(c1)c1nnc(SCC(=O)N3CCC(C)CC3)nc1n2C,-190.1,-0.6%,.,-4.1,-0.7,
Cc1cc(C(=O)NNc2ccc(F)cc2F)no1,.,?,94.8,-0.2,.,
Cc1cc(C(=O)NNC(=O)c2cccc(N(C)C)c2)c(C)o1,.,.,-18.6,-1.0,.,
CNC(=O)C(=O)NCC1OCCCN1S(=O)(=O)c1ccc(F)cc1C (stereo unspecified),.,.,-17.7,0.1,.,
CS(=O)(=O)c1ccc(-c2nnn(CC(N)=O)n2)cc1,.,4.1%,-0.1,1.3,7.3,
S=C(NCc1ccncc1)Nc1ccc(Cl)cc1Cl,.,-1.7%,2.3,1.6,6.5,
COc1cc(/C=C2\SC(=Nc3ccccc3)N(CCc3c[nH]c4ccccc34)C2=O)ccc1OC(C)C(=O)O (stereo unspecified),-14.3,4.5%,3.0,6.0,-13.2,
CCOCc1nnc(NC(=O)CS(=O)(=O)c2ccc(C)cc2)s1,.,.,-0.6,-0.6,.,
COc1ccc(Br)cc1CNC(=O)CCCc1cn(C)c2ccccc12,-32.5,.,-7.9,-6.5,-1.4,
COc1ccc([N+](=O)[O-])cc1C(=O)C(=O)c1ccccc1,.,.,4.7,-0.3,.,
O=C(CCCc1ccccc1)NCCC1=CCCCC1,.,2.8%,-0.7,2.0,-2.5,
CC(C)n1c(SCC(=O)N2CCN(C)CC2)nc2c1c(=O)n(C)c(=O)n2C,.,.,-4.8,-1.4,.,
CCC(C)NC(=O)c1ccc2nc(Cc3ccc(OC)cc3)oc2c1 (stereo unspecified),.,.,4.5,-4.6,.,
Cn1c(=O)[nH]c(=O)c2c1nc(Br)n2CC(O)COc1ccccc1 (stereo unspecified),-28.8,1.0%,7.1,-2.1,7.0,
CCCCOc1ccccc1C1NC(=O)NC(C)=C1C(=O)OCCOC (stereo unspecified),-63.3,-3.8%,5.8,0.7,6.1,Arbovirus anti repeat=2.1
CCS(=O)(=O)N1Cc2ccccc2CC1C(=O)N1CCN(c2ccccc2)CC1 (stereo unspecified),-37.1,-16.4%,0.3,1.2,-4.3,
N=c1oc2cc(O)ccc2cc1C(=O)Nc1ccc(F)cc1,.,.,96.0,i,.,
C=CCN(C(=O)c1ccccc1)c1ccc(OC)cc1,20.7,-19.0%,1.4,2.2,-8.0,
# (listing goes on)
SMILES,YopH PTP inh,Mtb H37Rv,Mtb bLac sens,RecA splice inh,Arbovirus anti,others
O=C(c1ccc(F)cc1)c1c[nH]c(C(=O)NCc2ccco2)c1,-17.1,7.5%,5.4,-2.0,0.1,
Cc1ccccc1C[n+]1cccc2ccccc21,.,.,-4.0,-3.3,.,
CC(C)Oc1ccc(Cc2cnc(=S)[nH]c2N)cc1,.,5.1%,-1.0,.,-8.8,
O=S(=O)(c1ccc(-c2cn3ccccc3n2)cc1)N1CCOCC1,-5.0,-21.3%,?,2.4,-4.0,Arbovirus anti repeat=6.7
CC1CCN(CC(=O)Nc2ccc(S(=O)(=O)N3CCC(C)CC3)cc2)CC1,.,.,1.3,-2.9,.,
Cc1ccc(-c2nc3ccccc3c(=O)n2-c2cccc(O)c2)cc1,.,8.2%,5.1,2.2,28.3,
CC(C)(O)CC[C@@H](O)[C@](C)(O)[C@H]1CC[C@@]2(O)C3=CC(=O)[C@@H]4C[C@@H](O)[C@@H](O)C[C@]4(C)[C@H]3CC[C@]12C,.,.,2.9,-2.2,.,
NC(=O)Nc1cccc(C(F)(F)F)c1,-22.3,-3.1%,6.0,-3.8,1.8,
CC(=O)c1cccc(NC(=O)Nc2cccnc2)c1,-4.7,1.1%,9.6,1.7,11.5,
O=[N+]([O-])c1ccc(Cl)c(/C=N/n2c(-c3cccnc3)n[nH]c2=S)c1,-29.0,-3.3%,3.2,-1.6,5.1,
Cc1ccc(CCNC(=O)C2CCCN(S(=O)(=O)c3cccc4nsnc34)C2)cc1 (stereo unspecified),-24.8,-9.3%,-12.3,-0.9,-5.5,
O=C1c2ccccc2C(=O)N1CCCn1nnc(-c2ccc(N3CCOCC3)cc2)n1,-1.3,-1.6%,1.4,-0.5,2.8,
O=C(c1ccccc1Sc1ccccc1[N+](=O)[O-])N1CCCCC1,.,0.4%,-1.1,0.0,-9.4,
COc1ccc(S(=O)(=O)N2CCC3(CC2)OCCN3S(=O)(=O)c2ccc(C)cc2)cc1OC,.,.,-2.7,-1.4,.,

# This is a subset; count on the stated rates, not on these rows.
